HSV replic up – increases HSV replication in cells; 220,000 compounds, 0.005% hits; HSV replication augmentation in cells, fold increase; maximum fold increase;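 active means peak rise of 1.5-fold or more in the series; inconclusive means self-fluorescent or not available for retest; tested in PC3 cells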;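 further: first round at 10 µM; read as green reporter fluorescence; hits show the peak of a series up to 25 µM; 1 = signal of infected wells without compound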
GALR2 ag – activates the human galanin receptor 2; AID 803; O43603; activation, %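 (tested at 5 µM)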; GALR2-expressing cells, agonist activation read-out; 140,000 compounds, 0.48% hits;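 active means above mean plus 3 SD of all compounds, about 5% in these data, not always enough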;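 further: 0% = vehicle buffer wells and 100% = reference agonist at full effect; tested in CHO reporter cells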
RGS16-Gao – modulates binding between human RGS16 and Galphao. O15492+P09471. binding response (% of control), % at 10 µM. 220,000 compounds, 0.38% hits. bead-based flow cytometry RGS16-Galphao binding, fluorescence; actives lie on both sides. AID 1441;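 active means below 25% or above 175%, edge rows of some plates excepted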;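 further: Galphao activated by GDP with aluminum fluoride before binding; 100% = wells without compound and 0% = beads without RGS; some results beyond the cut were filed as inactive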
PKD1 inh – PKD1 (human) kinase inhibition | Q15139 | PKD1 kinase fluorescence polarization assay | inhibition, %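 (about 10 µM by stock and volumes)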 | 200,000 compounds, 0.056% hits | AID 797;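 active means inhibition of 50% or more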;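 further: controls were vehicle for no effect and a reference inhibitor for full effect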
Target sequence (Q15139 whole entry, looked up): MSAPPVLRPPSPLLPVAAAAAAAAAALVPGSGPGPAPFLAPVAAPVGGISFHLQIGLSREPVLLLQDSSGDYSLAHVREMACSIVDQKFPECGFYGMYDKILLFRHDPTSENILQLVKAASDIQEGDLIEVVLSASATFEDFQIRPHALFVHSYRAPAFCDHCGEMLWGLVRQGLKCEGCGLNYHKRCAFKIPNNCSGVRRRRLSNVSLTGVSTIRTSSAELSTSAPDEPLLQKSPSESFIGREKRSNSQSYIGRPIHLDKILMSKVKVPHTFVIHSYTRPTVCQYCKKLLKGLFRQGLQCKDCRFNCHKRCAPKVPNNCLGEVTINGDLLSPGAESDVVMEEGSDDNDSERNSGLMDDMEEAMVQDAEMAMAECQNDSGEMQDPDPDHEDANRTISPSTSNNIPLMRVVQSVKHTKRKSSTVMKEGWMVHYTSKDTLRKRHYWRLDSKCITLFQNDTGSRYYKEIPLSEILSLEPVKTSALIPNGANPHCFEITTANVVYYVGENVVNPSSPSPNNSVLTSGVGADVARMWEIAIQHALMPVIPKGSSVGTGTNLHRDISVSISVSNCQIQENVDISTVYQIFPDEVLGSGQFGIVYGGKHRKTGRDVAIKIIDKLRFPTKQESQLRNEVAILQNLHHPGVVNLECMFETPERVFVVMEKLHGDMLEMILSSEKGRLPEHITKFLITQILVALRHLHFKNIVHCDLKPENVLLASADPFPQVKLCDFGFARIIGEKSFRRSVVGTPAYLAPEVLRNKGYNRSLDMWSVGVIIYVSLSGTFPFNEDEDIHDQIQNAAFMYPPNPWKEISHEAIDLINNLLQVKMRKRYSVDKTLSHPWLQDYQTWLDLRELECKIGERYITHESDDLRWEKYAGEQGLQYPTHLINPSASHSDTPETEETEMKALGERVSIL
INS promoter inh – TRM-6 insulin promoter activity inhibition; TRM-6 cells (human fetal islet line), insulin promoter-eGFP reporter, imaging; reporter expression induced with tamoxifen; inhibition, % at 2 µM; 130,000 compounds, 0.9% hits;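 active means inhibition above the mean plus 3 SD, with well images judged a real hit on visual review, cut at about 60% in these data, passing the limit was not always enough; inconclusive means inhibition over the cutoff but images rejected on review; inactive means inhibition not above the cutoff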
INS promoter inh cell count – recorded beside INS promoter inh, whose call it bears; normalized cell count, %; measured here: cell count, toxicity; reference of the scale not given here;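 cells exposed to compound for 48 h; stained nuclei by imaging scaled within each plate; lower means fewer cells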
HSV replic up primary fold – recorded beside HSV replic up, whose call it bears; fold increase; compound at 10 µM; measured here: primary screen fold increase 10 uM; tested in PC3 cells;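 GFP signal in the first replicate; 1 = infected wells without compound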
Active calls of the source: *; i = inactive; ? = inconclusive; . = no result given.

SMILES | HSV replic up | HSV replic up primary fold | GALR2 ag | RGS16-Gao | PKD1 inh | INS promoter inh | INS promoter inh cell count
CCCSc1nc(O)c(C2OC(=O)c3c2ccc(OC)c3OC)c(=O)n1-c1ccccc1 (centres undefined) | i | 0.84 | -0.5 | 100.4 | -3.3 | 22.9 | 142.6
Cc1ccc(NC(=O)Cc2c(O)c3ccccc3[nH]c2=O)c(C)c1 | i | 0.65 | . | 101.2 | . | . | .
CC(C)Cn1c(SCC(=O)c2ccc(Cl)s2)nnc1-c1ccco1 | i | 1 | -0.7 | 102.4 | -6.9 | 0.0 | 107.4
COc1ccc(-c2nn(-c3ccccc3)cc2N)cc1 | i | 0.93 | . | 100.4 | 6.2 | -111.1 | 87.5
Cc1ccc[n+](CC(=O)/C=C2\N(C)c3ccccc3C2(C)C)c1 | i | 0.94 | 0.4 | 102.2 | -10.5 | 13.3 | 118.2
Cc1ccccc1Cn1cnc2c(cnn2C(C)(C)C)c1=O | i | 1.05 | -3.8 | 73.0 | -29.4 | -33.3 | 118.6
CCCCC(=O)NC(=S)NNC(=O)c1ccc(OC)cc1 | i | 0.9 | . | 99.0 | -5.1 | . | .
O=C(O)CNS(=O)(=O)c1ccc(C2CCCCC2)cc1 | i | 0.91 | . | 95.5 | -4.8 | 55.6 | 109.4
CN(C)c1ccc(C(CNC(=O)c2ccccc2Br)c2c[nH]c3ccccc23)cc1 (centres undefined) | i | 1 | -1.0 | 98.3 | -1.7 | -21.6 | 154.6
CC(=O)Nc1cc2ccc(OC(C)=O)cc2oc1=O | i | 1.22 | . | 101.6 | 1.5 | . | .
CCOC(=O)N1CCN(C(=O)CCCCn2c(=S)[nH]c3ccsc3c2=O)CC1 | i | 1 | . | 104.2 | -0.1 | 21.4 | 52.4
CC(C)Cn1c(=O)[nH]c(=O)c2c(C(F)(F)F)cc(-c3ccccc3)nc21 | i | 0.81 | . | 99.1 | . | . | .
O=C(Nc1cccc(-c2cn3c(n2)SCC3)c1)c1ccc(Br)o1 | i | 0.84 | . | 104.9 | -3.0 | 33.3 | 140.8
COc1cc2c(cc1NC(=O)c1ccc3c(c1)OCO3)oc1ccccc12 | i | 0.85 | -4.4 | 121.0 | -3.0 | 22.9 | 87.5
Cc1ccc(N2CC(C(=O)N3CCN(c4ccccc4)CC3)CC2=O)cc1 (centres undefined) | i | 1.02 | -3.3 | 101.7 | -3.9 | 14.3 | 145.3
CC(C)CCN(C(=O)Cc1ccc(Cl)c(Cl)c1)c1c(N)n(Cc2ccccc2)c(=O)[nH]c1=O | i | 0.58 | . | 103.8 | 11.6 | . | .
CCN(Cc1ccncc1)S(=O)(=O)c1ccc(C(C)=O)cc1 | i | 1 | -0.9 | 102.8 | -4.1 | . | .
CCN(CC)S(=O)(=O)c1ccc(N2CCCC2)c(NC(=O)Cc2ccc(OC)cc2)c1 | i | 0.95 | . | 98.2 | 1.5 | 33.3 | 85.6
O=C(CSc1nnc(C2CCCCC2)n1-c1ccccc1)NCc1ccco1 | i | 0.92 | -1.8 | 104.8 | -4.8 | . | .
CC(=O)Nc1ccc(C2=NNC(=Nc3ccc(S(=O)(=O)N4CCOCC4)cc3)SC2)cc1 | i | 0.88 | . | 94.2 | . | . | .
O=C(NCCc1ccncc1)Nc1ccc(Cl)c(Cl)c1 | i | 0.99 | . | 96.3 | 2.9 | . | .
CN(CC(=O)N1CCCc2c1c(=O)oc1ccc(O)cc21)Cc1ccccc1 | i | 1.08 | -2.1 | 99.6 | -1.4 | 1.6 | 100.0
Cc1noc2ncnc(Oc3ccc(F)cc3)c12 | i | 0.88 | -0.9 | 109.8 | 0.1 | . | .
O=C(N/N=C/C(Br)=C/c1ccccc1)c1ccncc1 | i | 0.77 | . | 129.0 | . | . | .
COc1cc(NC(=O)COc2ccccc2[N+](=O)[O-])ccc1NC(=O)c1cccs1 | i | 0.6 | . | 100.5 | 1.0 | . | .
CCCCNC(=O)/C(=C\c1ccc([N+](=O)[O-])o1)NC(=O)c1ccccc1 | i | 1 | . | 111.6 | -0.6 | . | .
CCOC(=O)c1nc2ccccc2c(C)c1C | i | 0.88 | . | 102.2 | . | . | .
CC1(C(=O)NC2CCCCC2)CCC(=O)N1Cc1ccc2c(c1)OCO2 (centres undefined) | i | 0.95 | . | 117.8 | . | . | .
O=C(NCCc1ccccn1)c1cc(C(=O)C2CCCCC2)c[nH]1 | i | 1.09 | -1.4 | 101.3 | 11.3 | 39.3 | 96.9
COc1ccc(NS(=O)(=O)c2cc(NC(=O)c3ccccc3F)ccc2N2CCCC2)cc1 | i | 0.7 | . | 98.9 | . | . | .

Some of the entries so far, in markdown:
| Structure | HSV replic up | HSV replic up primary fold | GALR2 ag | RGS16-Gao | PKD1 inh | INS promoter inh | INS promoter inh cell count |
| --- | --- | --- | --- | --- | --- | --- | --- |
| COc1cc(NC(=O)COc2ccccc2[N+](=O)[O-])ccc1NC(=O)c1cccs1 | i | 0.6 | . | 100.5 | 1.0 | . | . |
| CCCCNC(=O)/C(=C\c1ccc([N+](=O)[O-])o1)NC(=O)c1ccccc1 | i | 1 | . | 111.6 | -0.6 | . | . |
| CCOC(=O)c1nc2ccccc2c(C)c1C | i | 0.88 | . | 102.2 | . | . | . |
| CC1(C(=O)NC2CCCCC2)CCC(=O)N1Cc1ccc2c(c1)OCO2 (centres undefined) | i | 0.95 | . | 117.8 | . | . | . |

Additional results
SMILES | HSV replic up | HSV replic up primary fold | GALR2 ag | RGS16-Gao | PKD1 inh | INS promoter inh | INS promoter inh cell count
O=[N+]([O-])c1ccc(Sc2cccc3cccnc23)c([N+](=O)[O-])c1 | i | 0.54 | 0.2 | 98.8 | 6.4 | 19.4 | 67.0
COc1ccc(S(=O)(=O)N2CCCC2C(=O)n2nc(C)cc2C)cc1 (centres undefined) | i | 0.87 | . | 103.3 | -0.9 | . | .
CCOC(=O)CCCSc1nc2sc(C)c(C)c2c(=O)[nH]1 | i | 0.8 | -1.3 | 98.7 | 0.9 | 60.0 | 108.7
CC(Sc1cccc(C(F)(F)F)c1)C(=O)NC(N)=O (centres undefined) | i | 0.83 | . | 102.8 | . | . | .
Cc1ccc(CS(=O)(=O)c2ccc(C(=O)N3CCN(c4ccccn4)CC3)cc2[N+](=O)[O-])cc1 | i | 0.7 | . | 35.5 | -2.1 | . | .
O=C(Nc1ccc(Br)cc1F)c1ccncc1 | i | 0.91 | 2.2 | 78.8 | -3.0 | 7.7 | 193.3
CCC1(CC)NC(=O)N(CC(=O)N2N=C(c3ccc(Cl)cc3)CC2c2ccco2)C1=O (centres undefined) | i | 0.94 | . | 114.0 | -3.7 | . | .
Cc1ccc(C(=O)N2CCN(C(=O)N3CCOCC3)CC2)cc1 | i | 0.92 | -1.6 | 111.8 | -3.6 | -20.0 | 66.7
N#C/C(=C\c1cn(Cc2ccc(F)cc2)c2ccccc12)C(=O)NCc1ccco1 | i | 0.93 | 4.0 | 102.1 | -7.4 | 13.8 | 93.1
CC(NS(=O)(=O)c1ccccc1)C(=O)NCc1ccco1 (centres undefined) | i | 1.22 | -3.2 | 107.0 | -6.4 | 7.1 | 95.7
Fc1cccc(-c2csc(-c3ccno3)n2)c1 | i | 1.09 | . | 92.2 | . | . | .
O=S(=O)(c1cccc2nonc12)N1CCN(c2ccccc2F)CC1 | i | 1.02 | . | 99.3 | 0.0 | . | .
Cc1nc2c3ccccc3[nH]c(=O)n2n1 | i | 0.87 | -2.1 | 98.0 | -4.5 | -17.2 | 146.7
COc1ccc(N2CCN(C(=S)Nc3cc(C)ccc3C)CC2)cc1 | i | 0.94 | -1.7 | 104.4 | -4.5 | 33.3 | 122.6
O=c1[nH]c(CSc2nnc(Nc3ccccc3)s2)nc2ccccc12 | i | 0.81 | . | 104.9 | . | . | .
CC1CCCCC1NC(=O)CN1CCC(O)(c2ccc3c(c2)OCO3)CC1 (centres undefined) | i | 0.9 | . | 154.2 | -6.3 | -43.6 | 32.1
CCc1cc2c(-c3ccccc3)cc(=O)oc2cc1OC(=O)c1cccs1 | i | 1 | -2.3 | 114.5 | -15.3 | -22.2 | 62.9
CCC(C)c1ccccc1NC(=O)COC(=O)C1=COCCO1 (centres undefined) | i | 1.02 | . | 98.8 | 1.3 | . | .
CN(C(=O)CSc1nc(-c2ccccc2)cs1)C1CCS(=O)(=O)C1 (centres undefined) | i | 0.95 | -2.3 | 74.2 | -4.4 | i | 52.8
Cc1ccc2cc(C#N)c(N3CCCN(S(=O)(=O)c4ccc(F)cc4)CC3)nc2c1 | i | 0.9 | -1.1 | 87.1 | -5.6 | -394.4 | 37.2
c1ccc(Cc2nnc3sc(-c4ccc5c(c4)OCO5)nn23)cc1 | i | 0.91 | -2.4 | . | -4.0 | -7.7 | 91.4
CCC(c1nc2ccccc2c(=O)n1-c1cccnc1)N1C(=O)c2ccccc2C1=O (centres undefined) | i | 0.86 | -2.8 | 103.5 | 2.5 | 60.0 | 88.5
COC(=O)c1c(NC(=O)COC(=O)c2ccc(C)s2)sc2c1CCCCC2 | i | 0.94 | -0.7 | 101.3 | -5.6 | 16.1 | 87.5
Cc1cc(NC(=O)COc2cccc3cccnc23)no1 | i | 1.01 | -1.1 | 100.8 | -11.4 | 18.9 | 87.7
Cc1cc(C)c2cccc(NC(=S)NC(=O)c3ccccc3)c2n1 | i | 0.94 | -0.4 | 102.7 | 6.1 | . | .
O=S(=O)(c1ccc2c(c1)CCCN2)N1CCCC2CCCCC21 (centres undefined) | i | 1.1 | . | 98.4 | . | . | .
Cn1c(=O)[nH]c(=O)c2c1nc(Br)n2CCOc1ccccc1 | i | 1.02 | -1.9 | 98.6 | 0.7 | -6.5 | 96.2
Fc1ccc(-n2c(-c3ccc4ccccc4n3)n[nH]c2=S)cc1 | i | 1.02 | . | 27.9 | -0.4 | 11.1 | 36.7
CC1(C)CC(=O)c2cnc(NCc3ccco3)nc2C1 | i | 0.95 | 0.0 | 100.7 | -5.7 | . | .
O=C(NCC(c1cccnc1)N1CCN(c2ccccc2)CC1)c1ccc2c(c1)OCO2 (centres undefined) | i | 0.923 | 1.1 | 101.9 | -10.6 | 0.0 | 53.8

Three entries from above, in CSV form.
compound,HSV replic up,HSV replic up primary fold,GALR2 ag,RGS16-Gao,PKD1 inh,INS promoter inh,INS promoter inh cell count
CC1CCCCC1NC(=O)CN1CCC(O)(c2ccc3c(c2)OCO3)CC1 (centres undefined),i,0.9,.,154.2,-6.3,-43.6,32.1
CCc1cc2c(-c3ccccc3)cc(=O)oc2cc1OC(=O)c1cccs1,i,1,-2.3,114.5,-15.3,-22.2,62.9
CCC(C)c1ccccc1NC(=O)COC(=O)C1=COCCO1 (centres undefined),i,1.02,.,98.8,1.3,.,.

Remaining list, next part:
SMILES | HSV replic up | HSV replic up primary fold | GALR2 ag | RGS16-Gao | PKD1 inh | INS promoter inh | INS promoter inh cell count
CCc1cccc2cc3c(N)c(C(=O)Nc4ccc(S(=O)(=O)N5CCCC5)cc4)sc3nc12 | ? | . | -0.5 | 99.5 | 7.2 | -203.0 | 123.5
O=C(COc1ccccc1)NCCSCc1ccco1 | i | 0.963 | -3.7 | 91.5 | -14.8 | -42.9 | 135.2
Cn1ccc(-c2ccccc2)n1 | i | 1.05 | . | 105.7 | -7.1 | -5.6 | 165.9
O=C(COC(=O)C12CC3CC(CC(C3)C1)C2)Nc1ccc(OC(F)F)cc1 | i | 0.87 | -1.2 | 98.1 | -5.4 | -40.5 | 51.0
CSC(=S)N/N=C/c1ccc(N(C)C)cc1 | i | 0.98 | . | 115.8 | -5.0 | 27.3 | 111.4
O=C(O)Cn1cnc2sc3c(c2c1=O)CCCC3 | i | 0.84 | . | 102.9 | 0.5 | -53.9 | 52.4
S=C(Nc1ccc(Cl)cc1)c1sc(N2CCCCC2)nc1N1CCOCC1 | i | 0.98 | 0.3 | 85.3 | -2.5 | -7.9 | 59.1
O=C(NCC1CCCO1)C(=O)c1c[nH]c2ccccc12 (centres undefined) | i | 1.03 | . | 96.8 | -6.3 | 17.6 | 78.3
CC1(c2ccc3ccccc3c2)NC(=O)N(CC(=O)NCc2cccs2)C1=O (centres undefined) | i | 0.98 | 1.3 | 93.2 | 0.4 | 5.6 | 117.1
CCOc1ccccc1N1CCN(C(=O)c2ccc3[nH]c4c(c3c2)CCCC4)CC1 | i | 0.92 | -1.6 | 24.4* | -7.7 | 29.4 | 53.1

4 compounds from above, reduced to HSV replic up and RGS16-Gao:
mol	HSV replic up	RGS16-Gao
O=C(COc1ccccc1)NCCSCc1ccco1	i	91.5
Cn1ccc(-c2ccccc2)n1	i	105.7
O=C(COC(=O)C12CC3CC(CC(C3)C1)C2)Nc1ccc(OC(F)F)cc1	i	98.1
CSC(=S)N/N=C/c1ccc(N(C)C)cc1	i	115.8

Screening data deposited in PubChem by several laboratories.

Rows are unselected (roughly 1.3% active in at least one column).
